Sfp inh: Sfp phosphopantetheinyl transferase inhibition; Biochemical Sfp PPTase activity, qHTS; Potency, µM, without a hit: max response, negative = inhibition, actives largely listed as inhibitors; hit rate 3.5% among 310,000; AID 1490; active means well fitted inhibition curve with a large enough effect; inconclusive means small, poorly fitted or top-dose-only effect, or another doubt; inactive means no such curve, though single readings can be large or run the other way;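 further: the enzyme is Sfp with the accession as filed and its product quenches rhodamine fluorescence; potency means the concentration at half of the fitted maximal effect; 0% = enzyme reaction without inhibitor and -100% = no enzyme wells; top concentration of the series not given in the record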
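Buffer: 50 mM Hepes-Na pH 7.6, 10 mM MgCl2, 0.01% Nonidet P-40, 0.01% BSA. Enzyme 15 nM, pre-exposed to compound 15 min; substrates then added and fluorescence change tracked over 30 min.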
Menin MLL FP FL: displaces fluorescein MLL peptide from human menin. FP activity change, % at 61.4 µM. Fluorescence polarization, fluorescein-MLL peptide displacement from menin. AID 1766. 290,000 tested, under 10 active; inconclusive = falling polarisation curve, or a change in total fluorescence; inactive = total fluorescence flat and polarisation flat or rising; no compound was filed as active; the % refers to the polarisation; negative = inhibition;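 further: % of control where 0% means no effect; inhibitors lower the polarisation; unlabelled MLL peptide was the positive control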
* marks the source's active call; other numbers are inactive results; ? = inconclusive; / = not tested or not shown; & = joins results of further samples; [ ] = dose if it differs, or a comment. This is a subset; rates above refer to the full screens.

1) CC[C@]1(O)C[C@@H]2CN(CCc3c([nH]c4ccccc34)[C@@](C(=O)OC)(c3cc4c(cc3OC)N(C)C3[C@]45CCN4CC=C[C@](CC)(C45)[C@@H](OC(C)=O)[C@]3(O)C(=O)OC)C2)C1 (some centres undefined)
2) CCCSS/C(CCO)=C(/C)N(C=O)Cc1cnc(C)nc1N
3) O=c1cc(-c2ccc(O)cc2)oc2cc(O)ccc12
4) O=C1NC(=O)[C@@]2(CCOc3ccc(F)cc32)N1
5) CCN(CC)CCOc1ccccc1C(=O)CCc1ccccc1
6) CCCCCC(=O)O[C@@]1(C(C)=O)CCC2C3CCC4=CC(=O)CC[C@@]4(C)C3CC[C@]21C (some centres undefined)
7) CC1CCC(C(C)C)C(OC(=O)c2ccccc2O)C1 (centres undefined)
8) NC(=O)n1c(O)c(C(=O)c2cccs2)c2cc(Cl)ccc21

Compound | 1 | 2 | 3 | 4 | 5 | 6 | 7 | 8
Sfp inh | 17.3% | 56.2µM* | 2.7% | -4.0% | 21.5% | -22.7% | 8.4% | -24.7%&7.8%
Menin MLL FP FL | / | 3.2 | 0.1 | 0.1 | 2.6 | 0.9 | 3.7 | 0.7&-3.4

An excerpt from above in order of length of the SMILES, largest number first:
1) CC[C@]1(O)C[C@@H]2CN(CCc3c([nH]c4ccccc34)[C@@](C(=O)OC)(c3cc4c(cc3OC)N(C)C3[C@]45CCN4CC=C[C@](CC)(C45)[C@@H](OC(C)=O)[C@]3(O)C(=O)OC)C2)C1 (some centres undefined)
6) CCCCCC(=O)O[C@@]1(C(C)=O)CCC2C3CCC4=CC(=O)CC[C@@]4(C)C3CC[C@]21C (some centres undefined)
8) NC(=O)n1c(O)c(C(=O)c2cccs2)c2cc(Cl)ccc21
2) CCCSS/C(CCO)=C(/C)N(C=O)Cc1cnc(C)nc1N
4) O=C1NC(=O)[C@@]2(CCOc3ccc(F)cc32)N1
7) CC1CCC(C(C)C)C(OC(=O)c2ccccc2O)C1 (centres undefined)

Compound | 1 | 6 | 8 | 2 | 4 | 7
Sfp inh | 17.3% | -22.7% | -24.7%&7.8% | 56.2µM* | -4.0% | 8.4%
Menin MLL FP FL | / | 0.9 | 0.7&-3.4 | 3.2 | 0.1 | 3.7

New compounds follow
9) CCN(CC)C[C@@H]1CCCCN1CC(=O)N1c2ccccc2C(=O)Nc2cccnc21
10) CN(C)CC/C=C1\c2ccccc2COc2ccc(CC(=O)O)cc21
11) O=C(O)CCC/C=C\C[C@H]1C(=O)C[C@@H](O)[C@@H]1/C=C/[C@@H](O)CCc1ccccc1
12) CCOC(=O)c1cccc(N)c1
13) O=C(O)CN1C(=O)c2cccc3cccc(c23)C1=O
14) CC1(C)OC2CC(=O)OCC23C1CC(=O)C1(C)C3CC[C@@]2(C)[C@H](c3ccoc3)OC(=O)C3OC312 (some centres undefined)
15) CCCOC(=O)c1ccccc1
16) CCCC(=O)O

Compound | 9 | 10 | 11 | 12 | 13 | 14 | 15 | 16
Sfp inh | 14.6% | 2.4% | 6.0%&2.9% | 21.4% | 17.3%&-13.4% | 6.9% | -4.6%&6.7% | 5.9%
Menin MLL FP FL | -11.5 | -3.7 | -0.9 | -20.3 | ? | -1.0 | 2.5&3.7 | -2.5

Sfp inh, what is marked active above.
2) CCCSS/C(CCO)=C(/C)N(C=O)Cc1cnc(C)nc1N

Compound | 2
Sfp inh | 56.2µM*
Menin MLL FP FL | 3.2

The list goes on:
17) CCNC(=O)/C=C/c1cccc(Br)c1
18) CC(=O)[C@@H]1CC[C@@H]2[C@@H]3C[C@H](C)C4=CC(=O)CC[C@@]4(C)[C@H]3[C@H](O)C[C@]21C
19) COC(=O)c1cccnc1
20) N/C(=N\N=C\c1ccc(Cl)cc1)N/N=C/c1ccc(Cl)cc1
21) CC1=C(c2ccc(NN=C(C#N)C#N)cc2)NNC(=O)C1
22) CC[C@@H](C)C(N)C(=O)O (some centres undefined)
23) C=CCN1C(=O)C(CC(C)C)NC1=S (centres undefined)
24) NS(=O)(=O)c1cc2c(cc1C(F)(F)F)N[C@H](Cc1ccccc1)NS2(=O)=O

Compound | 17 | 18 | 19 | 20 | 21 | 22 | 23 | 24
Sfp inh | 14.5% | 10.7% | 2.9%&14.8% | 79.4µM* | -2.6% | 7.4% | -13.8%&-9.0% | 27.9%
Menin MLL FP FL | 1.6 | -2.0[24.8 µM] | -10.1&-1.5 | -3.5 | 3.9 | 0.5 | ? | 0.2[24.8 µM]

25) CC(=O)NCCCCCC(=O)O
26) C[C@H]1[C@H](C)CC[C@]2(C(=O)O)CC[C@]3(C)C(=CCC4[C@@]5(C)C[C@@H](O)[C@H](O)[C@@](C)(CO)[C@@H]5CC[C@]43C)[C@H]12 (some centres undefined)
27) C#C[C@]1(OC(C)=O)CC[C@H]2[C@@H]3CCC4=C/C(=N/O)CC[C@@H]4[C@H]3CC[C@@]21CC
28) CCC(C)C(N)C(=O)O (centres undefined)
29) CN(C)CCCSc1ccccc1NC(=O)/C=C\c1ccccc1
30) CCCC(NC(C)C(=O)N1C(C(=O)O)CC2CCCCC21)C(=O)OCC (centres undefined)
31) Cc1onc(-c2ccccc2Cl)c1C(=O)NC1C(=O)N2C1SC(C)(C)C2C(=O)O (centres undefined)
32) C=CCSCC=C

Compound | 25 | 26 | 27 | 28 | 29 | 30 | 31 | 32
Sfp inh | -8.0% | 38.6%[activator] | 79.4µM* | 13.7% | -0.1% | 13.8% | -1.0% | 3.8%
Menin MLL FP FL | -8.7 | 26.5 | 19.1 | 0.9 | ? | -3.7 | -1.2 | 5.2

33) Cc1ccccc1N=Nc1ccc(N=Nc2c(O)ccc3ccccc23)c(C)c1
34) CCCCCCCC/C=C\CCCCCCCCN
35) OC1(c2ccc(Cl)c(C(F)(F)F)c2)CCN(CCCC(c2ccc(F)cc2)c2ccc(F)cc2)CC1
36) O=S(=O)(O)c1ccc2nc(-c3ccccc3)[nH]c2c1

Compound | 33 | 34 | 35 | 36
Sfp inh | 13.8% | 17.2% | ? | 14.8%
Menin MLL FP FL | 7.9 | 1.3 | 2.1 | 3.4

Single records, as listed above. Values in the order: Sfp inh, Menin MLL FP FL
CCCCCCCC/C=C\CCCCCCCCN is listed as 17.2%, 1.3
OC1(c2ccc(Cl)c(C(F)(F)F)c2)CCN(CCCC(c2ccc(F)cc2)c2ccc(F)cc2)CC1 is listed as ?, 2.1

Screening data as filed in PubChem.
